RanGTP-Impb inh: inhibitors of RanGTP-importin-beta interaction, primary screen, biochemical, FRET, CFP-Ran, YFP-importin-beta, homogeneous. inhibition, % (concentration not given with the values). 300,000 tested, 1.1% active. cell-free CFP-Ran/YFP-importin-beta FRET ratio. Ran GTPase (GTP-bound) - importin-beta complex;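 active = most replicates above 15%; inconclusive = exactly half above 15%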;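 also: 0% = DMSO wells and 100% = Ran loaded with GDP instead of GTP; wells of about 40 µL received 100 nL stock; the first replicate is given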
LANA-H2A inh: blockers of LANA interaction with H2A/H2B – biochemical, FP readout, HTS, primary screen; Protein LANA1 (Human herpesvirus 8 type P (isolate GK18)), Q9QR71; cell-free LANA-H2A/H2B peptide, fluorescence polarization; inhibition, % (test concentration not listed); 320,000 tested, 0.6% active; AID 2629, 2010; in the data active = inhibition mostly above about 10%, no sharp cut-off; inactive = mostly below about 6.7%;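 also: stock transfer was 7.5 nL into about 10 µL; 0% = median of vehicle wells and 100% = median of positive control wells; one replicate is shown; the record names a cut of 25% in any replicate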
A1 inh: caspase 3/7 activation in MEF A1-2A-BIM cells, primary screen, A1 inhibitor project, cell-based, luminescence, HTS; Caspase-Glo 3/7 luminescence, 3 h; percent of clofoctol response, vehicle zero; caspase activation, % (test concentration not listed); 330,000 tested, 0.066% active;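 active = over half of replicate activation scores above 10%, or exactly half above 10 with the replicate mean above 10; inconclusive = replicate mean below 10 yet half the replicates above 10; inactive = over half of replicates below 10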;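 also: wells of about 30 µL received 50 nL stock; many hits fall short of the cut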
T cruzi repl: inhibitors of intracellular T. cruzi growth, primary screen, luminescence, NIH3T3 host cells; T. cruzi beta-gal in NIH3T3, 90 h; inhibition, % (concentration not given with the values); 300,000 tested, 1.4% active; AID 1885, 2009;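 active = mean inhibition across valid replicates above about 55%, limit read from the data; inconclusive = mean below that limit but half or more replicates reach it; inactive = mean below it, under half of replicates reach it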;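 also: signal also drops with host cell toxicity which is not excluded here; 0% = plate median of DMSO wells and 100% = zero luminescence signal; higher percent means less beta-gal luminescence so fewer parasites; stock transfer was 50 nL into about 50 µL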
UCH37 DUB inh: inhibitors of human UCH37 deubiquitinase, primary screen, biochemical, Ub-AMC cleavage, fluorescence; purified proteasome/UCH37; AID 588478, 2011; inhibition, % (concentration not given with the values); Ubiquitin carboxyl-terminal hydrolase isozyme L5 (Homo sapiens), Q9Y5K5; 330,000 tested, 0.33% active;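 active = mean of two replicates above 20%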;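 also: 0% = compound-free wells with enzyme and 100% = wells lacking proteasome; stock transfer was 100 nL into about 20 µL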
Target sequence (Q9Y5K5 whole entry, looked up): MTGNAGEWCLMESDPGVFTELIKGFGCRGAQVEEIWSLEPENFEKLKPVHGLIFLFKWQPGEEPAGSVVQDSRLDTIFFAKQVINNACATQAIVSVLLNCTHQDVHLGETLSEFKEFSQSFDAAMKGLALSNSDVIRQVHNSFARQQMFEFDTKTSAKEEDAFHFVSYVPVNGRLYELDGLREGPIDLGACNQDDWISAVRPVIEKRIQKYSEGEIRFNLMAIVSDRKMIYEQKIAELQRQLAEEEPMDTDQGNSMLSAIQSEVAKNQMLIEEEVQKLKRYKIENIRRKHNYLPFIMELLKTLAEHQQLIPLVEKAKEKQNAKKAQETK
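system = Proteasome-associated human UCH37 deubiquitinase | amount = 0.15 nM proteasome as dispensed | medium = pH 7.4 Tris-HCl (50 mM) with ovalbumin, ATP-MgCl2, DTT | incubation = 30 min preincubation with enzyme, 25 min cleavage at room temperature | detection = AMC fluorescence 355/460 nm | read-out basis = percent inhibition | controls = no-proteasome and no-compound wells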
Beta2AR agonist: beta2AR agonists driving receptor internalization, primary screen, cell-based, FAP fluorogen, flow cytometry. 340,000 tested, 0.43% active. Am2.2-beta2AR cells; reference of the scale not given here. response, % (no concentration beside the values). Beta-2 adrenergic receptor (Homo sapiens), P07550;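 active = response above a set limit, near 3 SD of response in nonfluorescent compounds, cut at about 42% in these data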;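 also: stock transfer was 100 nL into about 11 µL; a reference agonist was the positive control; negative values mostly stem from fluorescent compounds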
Target sequence (P07550 whole entry, looked up): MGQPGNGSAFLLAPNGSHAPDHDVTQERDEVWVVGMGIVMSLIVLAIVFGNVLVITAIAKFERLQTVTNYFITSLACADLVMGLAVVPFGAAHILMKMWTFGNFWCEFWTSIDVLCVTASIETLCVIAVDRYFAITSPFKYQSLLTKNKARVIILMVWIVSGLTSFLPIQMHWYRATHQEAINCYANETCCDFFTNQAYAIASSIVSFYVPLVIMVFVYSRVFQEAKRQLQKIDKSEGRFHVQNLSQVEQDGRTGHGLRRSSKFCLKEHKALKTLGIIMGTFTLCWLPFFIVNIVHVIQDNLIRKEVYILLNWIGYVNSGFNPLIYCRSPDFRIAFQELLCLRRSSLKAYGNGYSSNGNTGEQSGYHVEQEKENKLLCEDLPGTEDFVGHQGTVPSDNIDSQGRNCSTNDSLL
Calb FLC: C. albicans growth inhibition with fluconazole, primary screen, CaCi-2 strain, Alamar Blue fluorescence | C. albicans CaCi-2 (fluconazole-resistant clinical isolate) + fluconazole, 48 h | 300,000 tested, 0.57% active | AID 1979, 2009 | growth inhibition, % (no concentration beside the values);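 active = most replicates above 75%; inconclusive = exactly half above 75%; inactive = most below 75%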;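 also: all wells also contain fluconazole at 8 µg/ml as a sub-toxic cotreatment; 0% = median of DMSO wells and 100% = median of geldanamycin control wells; wells of about 8 µL received 7.5 nL stock; the first replicate is given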
Beta apoptosis: inhibitors of cytokine-induced beta cell apoptosis, primary screen, luminescence; INS-1E cytokine-induced death, ATP luminescence, 48 h; percent of positive-control rescue, neutral wells zero; protection from apoptosis, % (no concentration beside the values); 300,000 tested, 0.8% active;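 active = all replicates at 75% or more, or half of them and the mean; inconclusive = half reach 75% but not the mean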;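 also: 0% = cytokine-treated negative control wells and 100% = positive control rescue; higher means more ATP so stronger rescue from cytokine killing; wells of about 40 µL received 100 nL stock; the first replicate is given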
An asterisk follows results filed as active; ? = inconclusive; · = no result given. Not all compounds are listed; rates above refer to the full screens.

No.	smiles	Beta2AR agonist	T cruzi repl	Calb FLC	LANA-H2A inh	UCH37 DUB inh	A1 inh	Beta apoptosis	RanGTP-Impb inh
1	FC(F)(F)c1ccc2c(c1)nnn2C1CCN(Cc2nnnn2Cc2ccccc2)CC1	-8	16	14	-0.3	2.5	-0.3	·	4.4
2	COc1c(C)cc(C(=O)C2CCCN(Cc3ccccn3)C2)cc1C (configuration not stated)	-3	14	8	0.8	2.5	0.1	-6	2.0
3	CCCCn1c(O)c(C(CC)=NCc2cccnc2)c(=O)[nH]c1=O	2	-28	17	-2.2	1.6	0.0	-1	0.3
4	CCCCn1c(O)c(C=NCCCn2ccnc2)c(=O)[nH]c1=O	-7	-8	-23	7.1	1.7	-0.1	-1	-0.3
5	O=[N+]([O-])c1cc([As](=O)(O)O)ccc1O	-8	·	·	-4.3	0.8	0.0	-12	·
6	O=C(COc1ccc(Cl)cc1)N1CCN(Cc2ccc([N+](=O)[O-])cc2)CC1	5	26	?	-1.0	1.1	-0.4	-5	·
7	CC(C)(CN)CC(=O)O	18	0	-8	-3.9	·	0.9	-3	5.9
8	C[n+]1c(-c2ccccc2)c2cc(N)ccc2c2ccc(N)cc21	17	62*	93*	13	6.5	-1.7	97*	3.3
9	COC(=O)C1C2c3ccccc3OC1(C)N=c1s/c(=C/c3cnn(C)c3C)c(=O)n12 (configuration not stated)	-2	5	-24	-1.6	·	-0.5	4	0.6
10	CC(=O)O[C@]1(C)C(=O)OC/C2=C/CN(C)CCC(OC(=O)[C@@](O)(C(C)O)C[C@H]1C)C2=O (some centres not stated)	1	-17	-2	-5.1	-0.1	1.5	-3	3.5
11	O=[N+]([O-])c1ccc(N2CCNCC2)cc1N1CCCCC1	-6	-5	-1	-8.6	9.4	0.3	-6	8.8
12	COc1cccc(-n2c(O)c(C=NCc3ccc4c(c3)OCO4)c(=O)[nH]c2=O)c1	-3	-27	-30	2.7	3.7	-0.2	-8	3.3
13	CN1c2ccccc2Oc2ccccc21	1	-16	-19	-7.1	-3.0	0.3	-1	4.1
14	CCOS(C)(=O)=O	-3	·	·	-3.5	1.0	0.5	1	·
15	COC(=O)C1=C(c2cccc(C#N)c2)C[C@@H]2CC[C@H]1N2C(=O)NCc1ccc(F)cc1	0	·	·	0.9	-0.7	-0.2	-3	·
16	O=c1[nH]c(=O)n(-c2ccc(Br)cc2)c(O)c1C=NCCN1CCCCC1	-6	1	-7	2.1	2.6	0.1	·	0.1
17	CCOC(=O)c1c(-n2c(C)cc(/C=C3\C(=O)NC(=O)N(C)C3=O)c2C)sc2c1CCCC2	3	14	23	-3.1	-30	0.7	-7	0.1
18	O=c1[nH]c(=O)n(-c2ccc(F)cc2)c(O)c1C=Nc1ccccc1N1CCCC1	-23	-2	-9	·	-21	-0.5	60	-0.3
19	Cc1ccc(C(=O)Nc2ccc(-n3ccnc3P(=O)(O)c3ccccc3)cc2)cc1	8	3	-13	-4.5	-2.5	-0.8	3	7.3
20	CCN1CCN(C(=O)COc2ccc(S(=O)(=O)N3CCOCC3)cc2Cl)CC1	-1	-6	2	4.1	1.4	-0.4	-8	4.1
21	O=[N+]([O-])c1ccc(Cl)cc1	-7	·	·	-44	3.7	0.1	0	·
22	N/C(=N\N=C/c1ccc(-c2ccc(O)c(C(=O)O)c2)o1)N[N+](=O)[O-]	2	0	-28	-8.4	·	-5.0	2	-2.5
23	COc1c(C)cc(C(=O)C2CCCN(Cc3cccc(O)c3)C2)cc1C (configuration not stated)	-4	43	-12	0.0	1.6	0.3	-3	-1.2
24	N#CC(CCN1CCOCC1)(c1ccccc1)c1ccccc1	0	-5	-5	1.4	1.4	2.4	·	-2.1
25	COC(=O)C1=C(c2ccc(OC(F)(F)F)cc2)C[C@@H]2CC[C@H]1N2C(=O)NCc1cc(C)oc1C(F)(F)F	-3	·	·	-2.3	1.5	-1.1	-5	·
26	Cc1ccccc1NC(=O)c1cc(-c2ccccc2)n(CCCN2CCOCC2)c1C	6	-6	-5	2.9	4.2	0.7	-3	-5.2
27	Cc1ccc2c(c1)CNc1ccccc1O2	2	-2	-6	3.6	3.9	-0.7	-4	7.2
28	CCOc1ccc2c(c1)c(C(C)=O)c(C)n2Cc1ccco1	-4	3	-18	-6.6	-2.7	-0.3	-12	-1.5
29	CCC(C)N1C(=O)/C(=C/c2ccc3c(c2)CCN3CCCCl)C(=O)NC1=S (configuration not stated)	-5	-2	-6	6.4	3.4	-0.2	-2	0.4
30	C=CCn1c(O)c(C(CC)=Nc2cccc(C(F)(F)F)c2)c(=O)[nH]c1=O	-6	-7	0	-2.6	-1.6	0.6	0	-1.0
31	CC(C)[C@H]1C(=O)O[C@@H]2CCN3CC=C(COC(=O)[C@](C)(O)[C@]1(C)O)[C@H]23	3	-12	-4	-3.8	4.4	0.9	12	-3.3
32	COC(=O)C1=C(c2ccc(Cl)c(C(F)(F)F)c2)C[C@@H]2CC[C@H]1N2C(=O)NCc1ccc2c(c1)OCO2	4	·	·	-2.7	2.4	1.1	2	·
33	COc1ccc(CC(=O)N(C)C2CCCN(Cc3ccccc3F)C2)cc1OC (configuration not stated)	-6	-16	1	-5.3	1.7	0.2	·	-3.8
34	CSC1=NP(=S)(SC)N(C)c2nc3n(c21)CCC3 (configuration not stated)	·	-1	-17	2.2	3.1	-0.1	2	-3.3
35	CC(=O)Nc1ccc(C2CN(C)CC2C(=O)c2ccc(Cl)cc2)cc1 (configuration not stated)	0	6	-22	0.5	1.0	-0.4	-1	3.1
36	CCOc1ccccc1-n1c(O)c(C=Nc2ccc(N(CC)CC)cc2)c(=O)[nH]c1=O	35	20	4	0.2	·	0.4	8	-24
37	COc1ccc2c3c([nH]c2c1)C(C)NCC3 (configuration not stated)	-1	9	-9	-12	-64	2.3	2	?
38	O=[N+]([O-])c1cccc(CN2CC=C(c3ccc(F)cc3)CC2)c1	-1	14	-2	-1.9	4.0	0.6	5	-4.9
39	C=C1[C@H]2CC[C@H]3[C@]4(C)C[C@H](O[C@H]5O[C@H](CO)[C@@H](OS(=O)(=O)O)[C@H](OS(=O)(=O)O)[C@H]5OC(=O)CC(C)C)C[C@@H](C(=O)O)[C@H]4CC[C@]3(C2)[C@H]1O	1	·	·	0.4	1.0	1.3	3	·
40	CC(C)[C@H](NC(=O)N1C[C@H]2C[C@@H](C1)c1cccc(=O)n1C2)C(=O)Nc1ccccc1F	-4	7	-3	2.7	1.9	0.6	2	-3.8
41	CC(N=Cc1c(O)n(C2CC2)c(=S)[nH]c1=O)c1ccccc1 (configuration not stated)	1	-20	-4	-3.2	5.6	1.7	0	2.2
42	COc1ccc(-c2[nH]ncc2CNC(C)Cc2ccsc2)c(F)c1 (configuration not stated)	-5	-9	1	1.5	2.2	-0.5	-2	7.0
43	COc1c2c(cc3c1OCO3)CCN(C)C2	-8	·	·	-1.9	-1.5	1.3	-7	·
44	O=C(CCc1ccccc1)N1C[C@H]2C[C@@H](C1)c1cccc(=O)n1C2	4	-17	4	6.6	0.4	0.1	-5	-0.7
45	CC1CCCCN1CC(O)c1c[nH]c2ccccc12 (configuration not stated)	2	0	-8	-2.3	5.3	0.9	-4	-4.1
46	CN(C)CCNC(=O)c1cccn(Cc2cccc(C(F)(F)F)c2)c1=O	2	1	-2	4.2	-75	2.0	-7	-0.3
47	O=P(Nc1ccccc1)(Oc1ccccc1)Oc1ccccc1	14	3	-14	1.8	4.6	0.4	-5	-0.8
48	O=c1cccc2n1CC1CC2CN(S(=O)(=O)c2cc(Cl)ccc2Cl)C1 (configuration not stated)	1	-12	-14	1.3	3.8	-0.6	-3	-1.5
49	COC(=O)C1=C(c2c(C)noc2C)C[C@@H]2CC[C@H]1N2C(=O)NC1Cc2ccccc2C1	-3	·	·	-0.2	1.2	0.4	-1	·
50	COC(=O)C1=C(c2ccc(-c3ccccc3)c(F)c2)C[C@@H]2CC[C@H]1N2C(=O)N1CCC(O)CC1	0	·	·	-0.2	3.8	0.0	3	·
51	CCCOc1ccc(C(=O)NC(=S)N2C[C@H]3C[C@H](C2)c2cccc(=O)n2C3)cc1	2	-6	0	1.0	-1.8	1.0	-1	-2.8
52	COC(=O)c1ccc(C(C(=O)NC2CCCCC2)N(CCN2CCOCC2)C(=O)Cc2cccs2)cc1 (configuration not stated)	-13	-4	17	-2.3	2.7	0.1	-2	-6.0
53	COC(=O)C1=C(c2cc3ccccc3s2)C[C@@H]2CC[C@H]1N2C(=O)NC1CCCCC1	5	8	-19	3.0	2.7	-0.3	5	0.7
54	c1ccc(Cn2ccnc2)cc1	-10	-12	-13	-0.1	6.6	0.8	-4	1.9
55	CN(C)c1ccc(N=Cc2c(O)n(CCC3=CCCCC3)c(=O)[nH]c2=O)cc1	2	1	-14	-2.3	1.1	-0.7	-5	?
56	COc1ccc(C(=O)C2CCCN(C3CSCCSC3)C2)c(C)c1 (configuration not stated)	7	8	-26	2.8	-1.9	-0.5	-11	-2.9
57	O=S(=O)(c1ccc(F)cc1)N1CN2CCN(C2)C1	-1	-9	6	-0.5	2.6	1.1	-2	1.1
58	COC(=O)C1=C(c2ccc(OC)c(OC)c2)C[C@@H]2CC[C@H]1N2C(=O)NCCOc1ccccc1	-1	·	·	0.1	7.7	1.1	-23	·
59	COc1ccc(OCC(=O)N2CCN(C/C=C/c3ccccc3)CC2)cc1	-1	7	-6	10	3.8	0.4	-2	-1.0
60	COc1ccc(N2C(=O)NC(=O)/C(=C\c3ccccc3[N+](=O)[O-])C2=O)cc1	-1	-5	10	0.0	3.8	-1.1	-2	-1.2

Remaining list, next part:
No.	smiles	Beta2AR agonist	T cruzi repl	Calb FLC	LANA-H2A inh	UCH37 DUB inh	A1 inh	Beta apoptosis	RanGTP-Impb inh
61	Nc1cnn(-c2ccccc2)c(=O)c1Cl	3	-16	2	-1.4	1.4	0.9	-5	-2.9
62	CC/C(=N\NC(=O)c1ccccc1)c1c(O)n(Cc2ccccc2)c(=O)[nH]c1=O	9	-2	-4	-2.1	6.3	-2.4	-11	6.2
63	COc1ccc(CC(C)Nc2cccc(F)c2)cc1 (configuration not stated)	-1	-13	2	1.3	3.3	0.2	-3	2.0
64	COc1cccc(Oc2c(C)oc3cc(OC(=O)N(C)C)ccc3c2=O)c1	1	-4	-18	-5.5	-0.5	-0.5	·	-5.0
65	CCn1ccnc1CN1CCCC(C(=O)c2cc(F)ccc2OC)C1 (configuration not stated)	0	-10	-3	-4.7	1.1	0.4	-2	4.7
66	NP(=O)(OCCCc1ccccc1)Oc1ccc(Cl)cc1 (configuration not stated)	0	-8	-9	0.5	5.4	1.0	-1	1.1
67	COc1ccc(C(=O)N/N=C/C23CC[C@@H](O)CC2(O)CC[C@@H]2[C@@H]3CCC3(C)C(C4=CC(=O)OC4)CCC23O)cc1 (some centres not stated)	-68	-8	-7	-1.6	·	1.3	-5	-0.3

Source: PubChem (several laboratories)
